Menin-MLL FL inh: displaces fluorescein MLL peptide from human menin; Fluorescence polarization, fluorescein-MLL peptide displacement from menin; FP activity change, % at 61.4 µM; 290,000 tested, under 10 active; AID 1766; inconclusive = falling polarisation curve, or a change in total fluorescence; inactive = total fluorescence flat and polarisation flat or rising; no compound was filed as active; the % refers to the polarisation; negative = inhibition;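 further: % of control where 0% means no effect; inhibitors lower the polarisation; unlabelled MLL peptide was the positive control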
Sfp inh: Sfp phosphopantetheinyl transferase inhibition. Biochemical Sfp PPTase activity, qHTS. Potency, µM, inactives show max response, negative = inhibition, hits mostly inhibitors. AID 1490. Q9F4F7. 310,000 tested, 3.5% active; active means well fitted inhibition curve with a large enough effect; inconclusive means small, poorly fitted or top-dose-only effect, or another doubt; inactive means no such curve, though single readings can be large or run the other way;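 further: the enzyme is Sfp with the accession as filed and its product quenches rhodamine fluorescence; potency means the concentration at half of the fitted maximal effect; 0% = enzyme reaction without inhibitor and -100% = no enzyme wells; top concentration of the series not given in the record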
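Buffer: 50 mM Hepes-Na pH 7.6, 10 mM MgCl2, 0.01% Nonidet P-40, 0.01% BSA. Enzyme 15 nM, pre-exposed to compound 15 min; substrates then added and fluorescence change tracked over 30 min.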
* marks the source's active call; other numbers are inactive results; u = inconclusive; & = joins results of further samples; [ ] = dose if it differs, or a comment. These rows are one share of the data; rates above refer to the full screens.

SMILES	Menin-MLL FL inh	Sfp inh
COC(=O)C1=C[C@@H](C(=O)OC)C2C3=C(C(=O)[C@@]2(C)NC(=O)c2ccccc2)[C@H](c2ccccc2)n2c(=O)n(-c4ccccc4)c(=O)n2[C@@H]3C1 (stereo not given in full)	2.6	8%
COC(=O)c1c(N)n(-c2ccc(N3CCOCC3)cc2)c2nc3ccccc3nc12	1.4	-12%
CN1C(C(=O)Nc2ccccn2)C(=O)c2sc(Cl)cc2S1(=O)=O (stereo not given)	-2.0	u
COC(=O)[C@@H]1C[C@@]2(O)[C@H](O)[C@H](O)[C@H](O)C[C@H]2N1CC1CCCCC1	-0.9	22%
CCC(=O)O[C@@H]1[C@H](C)O[C@H](O[C@H]2[C@@H](N(C)C)[C@H](O)[C@@H](O[C@@H]3[C@@H](CC=O)C[C@@H](C)[C@@H](O)/C=C\C=C/C[C@@H](C)OC(=O)C[C@@H](OC(=O)CC)[C@H]3OC)O[C@H]2C)C[C@]1(C)O	1.3[24.8 µM]	1%
CCOC(=O)c1[nH]c2cc3c(cc2c1NC(=O)CN1CCCCC1C)OCO3 (stereo not given)	0.9	-2%
COc1ccc(-c2csc(NC(=O)COC(=O)Cc3ccc(Cl)cc3Cl)n2)cc1	1.1	16%
O=S(=O)([O-])CCC[n+]1c(/C=C\Nc2ccccc2)oc2ccc(-c3ccccc3)cc21	u	-3%
C[C@@H](CNC1CCCCC1)OC(=O)c1ccccc1	3.2[24.8 µM]	16%
CC(C)ON(CC(=O)NO)S(=O)(=O)c1ccc(-c2ccccc2)cc1	0.6	20%
C#CCCCO/N=C1/[C@H]2O[C@@H]2[C@@H](O)[C@H]2[C@H]1CCn1c(=O)n([C@@H](CC)c3ccccc3)c(=O)n12	0.1[11.7 µM]	8%
Cc1nc(N2CCN(c3ccccc3)CC2)[nH]c(=O)c1Cc1cccc2ccccc12	2.2	0%
CCC(C)CC(C)CC(C)C(=O)/C=C(/O)C(C)CC(C)C/C=C/C(C)C(O)C(C)C(O)CC1CCC(C)(C)O1 (stereo not given)	8.5	0%
CC(C)(C)c1cc(/C=C(\C#N)C(N)=S)cc(C(C)(C)C)c1O	u	-22%&-3%
CCCCn1c(=S)[nH]c2ccc(N3CCOCC3)cc2c1=O	-0.2	u
Oc1c(C(c2cccs2)N2CCN(c3ccccc3)CC2)ccc2cccnc12 (stereo not given)	-1.2	40µM*
CO[C@H]1COC(=O)[C@H](C)NC(=O)C/C=C\[C@@H](C)[C@@H](NS(=O)(=O)c2ccc(C)cc2)COC(=O)[C@H](OCc2ccccc2)/C=C\[C@@H]1C	-1.1[11.7 µM]	13%
O=C(C1=C[C@H](c2ccccc2)C[C@H](OCc2ccc(CO)cc2)O1)N1CCCCCCC1	-1.7	-7%
Cc1cccc(NC(=O)C2CCCN2S(=O)(=O)c2cccc3cccnc23)c1 (stereo not given)	0.3	6%
O=C(O)c1ccc(CCN2CCN(CC=Cc3ccc(Cl)cc3)CC2)cc1	5.9	2%
COc1cc([C@H]2c3cc4c(cc3[C@@H](O)[C@@H]3COC(=O)[C@H]23)OCO4)cc(OC)c1OC	4.2[24.8 µM]	11%
Nc1c(C(=O)NCCc2ccc(Cl)cc2)sc2ccc(S(=O)(=O)N3CCCCC3)cc12	5.8	18%
COc1c(C=O)c(=O)[nH]c2c(OC)cccc12	5.6	-26%
CC(=O)O[C@H]1C2=CO[C@H](C)[C@H]3[C@H]4C5=C([C@H](O)[C@H]6O[C@@H]6C5=O)[C@H](O[C@H]4C)[C@@]23C(=O)[C@H]2O[C@@H]21	5.6[11.7 µM]	11%
Nc1nc(Nc2ccccc2)nc2c1ncn2[C@@H]1O[C@@H](CO)[C@H](O)[C@H]1O	u	6%
C=C1C2CC[C@@]3(C)C(c4ccoc4)OC(=O)C[C@@]13OC1CC(OC(C)=O)C(C)(C)C(CC(=O)OC)[C@@]12C (stereo not given in full)	0.2	1%
C=CCOCC/C=C1/c2ccccc2C(OC)C1C (stereo not given)	1.1[11.7 µM]	38%[activator]
CCSCc1nnc(SCC(=O)Nc2nc(C)cs2)n1C	0.1	-6%
Cc1nc(C)c(C)nc1C	1.4	17%
O=C(O)c1cccc(/C=C2/C[C@@H]3[C@@H](/C=C/[C@@H](O)C4CCCCC4)[C@H](O)C[C@@H]3O2)c1	-1.0	-4%
C=C1C(=O)OC(CCCCCCCC)C1C(=O)O (stereo not given)	0.5	-8%
Cc1ccc(C)c(N2CCN(S(=O)(=O)c3ccc4c(c3)CCC(=O)N4)CC2)c1	3.2	11%
C=C1CN(C(C(=O)OC)C(C)C)S(=O)(=O)c2ccc(F)cc21 (stereo not given)	3.6	14%
COc1ccc2c(c1OC)C(=O)N1c3ccccc3C(=O)OC21 (stereo not given)	-2.2	4%
C=CCn1c(-c2ccc(=O)n(Cc3ccccc3)c2)n[nH]c1=S	0.0	-3%
C/C=C/C1=CC2=CC(=O)C(C)(OC(=O)c3c(C)cc(O)cc3O)C(=O)C2=CO1 (stereo not given)	u	-9%
CCCn1c(-c2ccc(F)cc2)nc2c(NC3CC4CCC(C3)N4C)nc(C)nc21 (stereo not given)	-0.6	14%
CC=C(/C(=C/C)c1ccc(O)cc1)c1ccc(O)cc1	1.2[24.8 µM]	15%
COC(=O)c1ccc(C(NC(=O)OCc2ccccc2)/C(C)=C/[C@@H](C)C(=O)Nc2ccc(OC)cc2)cc1 (stereo not given in full)	0.0	-7%
CN(Cc1ccccc1NC(=O)c1ccc(S(=O)(=O)N(C)C)cc1)C1CCCCC1	0.9	9%
COC(=O)[C@@]1(Cc2ccccc2)[C@H]2c3cc(C(=O)N4CCCC4)n(Cc4ccc(O)c(OC)c4)c3C[C@H]2CN1C(=O)c1ccccc1	4.3	2%
CCCn1c(=O)c(C(=O)Nc2cnccn2)c(O)c2ccccc21	-1.2	5%
CCCCCCCCCCCCCCCC(=O)OC[C@H](COP(=O)([O-])OCC[N+](C)(C)C)OC(=O)CCCCCCCCCCCCCCC	1.4	-3%
CC(=O)c1ccc(-c2c(C3C4C=CCC(C)C4C(=O)N3Cc3ccccc3)ccc3ccccc23)cc1 (stereo not given)	6.3	1%
CC1CCCN(C(=O)c2cc(N3C(=O)C4C5CCC(C5)C4C3=O)ccc2Cl)C1 (stereo not given)	2.4	10%

Gathered by group, the entries above with an aryl methoxy group.
SMILES	Menin-MLL FL inh	Sfp inh
COc1ccc(-c2csc(NC(=O)COC(=O)Cc3ccc(Cl)cc3Cl)n2)cc1	1.1	16%
COc1cc([C@H]2c3cc4c(cc3[C@@H](O)[C@@H]3COC(=O)[C@H]23)OCO4)cc(OC)c1OC	4.2[24.8 µM]	11%
COc1c(C=O)c(=O)[nH]c2c(OC)cccc12	5.6	-26%
COc1ccc2c(c1OC)C(=O)N1c3ccccc3C(=O)OC21 (stereo not given)	-2.2	4%
COC(=O)c1ccc(C(NC(=O)OCc2ccccc2)/C(C)=C/[C@@H](C)C(=O)Nc2ccc(OC)cc2)cc1 (stereo not given in full)	0.0	-7%
COC(=O)[C@@]1(Cc2ccccc2)[C@H]2c3cc(C(=O)N4CCCC4)n(Cc4ccc(O)c(OC)c4)c3C[C@H]2CN1C(=O)c1ccccc1	4.3	2%

Going on with the list:
SMILES	Menin-MLL FL inh	Sfp inh
Cc1cccc(N(CC(=O)NC2CCCCC2)C(=O)CCC(=O)Nc2ccccn2)c1	0.7	-1%
CC(C)(C)OC(=O)NCCCC1=CC2=CC(=O)C(C)(OC(=O)c3ccco3)C(=O)C2=CO1 (stereo not given)	-1.0	-1%
O=C(O)CCCCC(=O)O	0.9	-5%
O=c1cc(-c2cccc(O)c2)oc2cc(O)ccc12	57[activator]	-24%
CCCCn1c(C)cc2c(c1=O)C1O[C@](CCCC)(Cc3cc(C#N)ccc31)O2	4.2[11.7 µM]	2%
CCCCCCCCCCCCCCCCCCOC[C@H](COP(=O)([O-])OCC[N+](C)(C)C)OC(C)=O	4.9	12%&-22%
O=C(/C=C/c1ccccc1)c1ccc(O)cc1O	2.7	-13%
O=C(O)CN1CCOCCOCCN(CC(=O)O)CCOCCOCC1	1.0	11%
C=C/C1=C/Cc2ccccc2C(C[N+](=O)[O-])C(C(=O)OC)(C(=O)OC)C1 (stereo not given)	-3.2[11.7 µM]	u
CC(=O)c1ccc(OC2C(O)COC2/C=C/c2ccc(Cl)cc2)cc1 (stereo not given)	0.1&2.4[11.7 µM]	4%&8%
COC(=O)c1cc(N2C(=O)C3C(C2=O)C2(C)C=CC3(C)O2)ccc1Cl (stereo not given)	2.7	7.9µM*
CC(=O)[C@@H]1[C@@H]2C(=O)N(C3CCCCC3)C(=O)[C@@H]2C2c3ccccc3C=CN21 (stereo not given in full)	u	-29%
CCN(CC)CCCN1C(=O)C(O)=C(C(=O)c2ccc(C)o2)C1c1cccs1 (stereo not given)	1.4	15%
O=c1c(-c2nc3ccccc3o2)c2oc3ccccc3n2c2ccccc12	5.0	11%
O=C(/C=C/C#Cc1cccc(NS(=O)(=O)c2ccccc2)c1)NO	7.1	-16%
COc1c2c(cc3c1C(c1c(O)c4ccccc4oc1=O)N(C)CC3)OCO2 (stereo not given)	-1.7	-7%
CCCC[C@H]1C[C@@H]1[C@@H]1N(C(C)=O)[C@H](c2cccc(OC)c2)CC12CC2	-2.0	6%
CCOC(=O)CCCNC(=O)N1CCc2nc(-c3ccc(OC)cc3C)c3c(c2C1)CO[C@@H](c1ccccc1)C3	0.8[11.7 µM]	7%
COC(=O)C/C=C1\c2ccccc2[C@H](OC)[C@H]1C	-6.1[11.7 µM]	4%
COc1cc2c(cc1OC)C1O[C@](CCCCN3C(=O)c4ccccc4C3=O)(C2)OC2=C1C(=O)c1ccccc1C2=O	1.7[11.7 µM]	-23%
COc1ccc2c(c1)c1ncnc(N3CCN(Cc4ccc5c(c4)OCO5)CC3)c1n2C	-0.3	-2%
CC#CCN1c2ccccc2[C@]23C[C@@H](C(=O)OC)N(S(=O)(=O)c4ccc(C#N)cc4)C2=NC(C(=O)OC)=C(C(=O)OC)[C@H]13	-8.1[11.7 µM]	5%
CCCCC/C=C\C\C=C/C=C/C=C/[C@@H](O)[C@@H](O)CCCC(=O)O	-4.8	5%
CC(=O)c1ccccc1NC(=O)COC(=O)c1ccc2c(c1)nc(C)n2-c1ccccc1	6.7	-12%
CN(CCCN1c2ccccc2CCc2ccccc21)CC(=O)c1ccc(Cl)cc1	7.4&-1.2	50µM*
CCCC[C@@H](C)/C=C(C)/C=C(\C)C(=O)NC1=C[C@@](O)(/C=C/C=C/C=C/C(=O)NC2=C(O)CCC2=O)[C@@H]2O[C@@H]2C1=O	u	u
C=CCC(C)(O)c1ccccc1 (stereo not given)	1.0	-4%
C=C1C(=O)O[C@@H]2[C@H]3O[C@]3(C)CCC=C(C)CC[C@@H]12	u	-11%
COc1ccc2nc(/C=N/NC(=O)[C@H](C)NC(=O)OC(C)(C)C)ccc2c1	10	4%
O=S1(=O)C2CC3C=CC2(O3)C(O)C(Cc2ccccc2)N1Cc1cccc(C(F)(F)F)c1 (stereo not given)	3.1	4%
Cc1cccc(C)c1NC(=O)C[N+](C)(C)C	u	3%
Cc1ccc2c(Br)cc(Br)c(O)c2n1	-5.3	u
NCCC[C@@H](CC(=O)N[C@@H]1CCCC[C@H]1C(=O)N[C@H](CC(=O)N[C@@H](CCC(=O)O)CC(=O)O)Cc1c[nH]c2ccccc12)NC(=O)C[C@H](Cc1c[nH]c2ccccc12)NC(=O)[C@@H]1CCCC[C@H]1N	-0.3	-23%
Cc1cccc(-n2c(N)cc(=O)nc2SCC(=O)Nc2nnc(CC(C)C)s2)c1	1.5	6%
CC1(C)C(=O)C=C[C@@]2(C)C1C=C[C@@]1(C)C2CC[C@@]2(C)C(c3ccoc3)OC(=O)C3OC312 (stereo not given in full)	3.4	1%
CCCC/C=C/[C@H](C)[C@@](C)(COC(=O)c1ccc(Br)cc1)Cc1ccccc1	-2.7	-3%
O=[N+]([O-])c1ccccc1S(=O)(=O)NCC1CCC(CNCC2CCc3ccccc3C2)CC1 (stereo not given)	-0.7	0%
COC(=O)C1OC(=O)C2OC23[C@]2(C)C(O)CC4C(C)(C)C(OC(C)=O)CC(OC(C)=O)[C@@]4(C)C2CC[C@@]13C (stereo not given in full)	-0.1&2.1	18%&16%
CCC1=C2CC[C@H]3C(=O)N(c4ccccc4)C(=O)[C@H]3[C@H]2[C@@]2(Cc3ccccc3)C(=NCc3ccccc3)OC(=O)N2C1=O	-0.5	47%[activator]
CCC1=C2CC[C@H]3C(=O)N(CC)C(=O)[C@H]3[C@H]2[C@@]2(C)C(=NCC(=O)OC)OC(=O)N2C1=O	-4.5	22%
O=C1[C@H]2[C@H]3[C@H](O)[C@H](O)C/C(=N/OCc4ccccc4)[C@H]3CC[C@@H]2C(=O)N1C1CCCCC1	2.1[11.7 µM]	5%
CC(C)(C)C(=O)NC(c1ccc(Cl)cc1)[C@]1(C)C[C@H]1C1CCCCC1 (stereo not given in full)	2.8	2%
COC(=O)C/C=C/C(C)C(OCc1cccc(Br)c1)C(C)C(OC)C1CCCCC1 (stereo not given)	4.8[11.7 µM]	16%
O=C(Oc1ccccc1O)c1cccc2ccccc12	4.6	0%
CCCCCCCCOc1c(OC)cc(/C=C/C(=O)N2CCN(c3ccc(C)c(C)c3)CC2)cc1OC	-0.5	-5%
